Screening results from PubChem.
StopGo RLuc – Primary qHTS Assay for Foot and Mouth Disease Virus Antivirals against NCGC Sytravon and CBC Compound Libraries: Renilla Luciferase Signal; HEK cells with a luciferase reporter of 2A StopGo recoding; Potency, µM (highest dose often 57.5 µM), for inactives: at the top dose signal change, negative = less light; 120,000 tested, 0.32% active; AID 1745857, 2022; active means well fitted falling curve with a large enough effect; inconclusive means small, poorly fitted or top-dose-only effect; inactive means no such curve, though single readings can be large or run the other way; note: nearly all actives have a fitted effect of over 55% in size; overnight with compound
StopGo FLuc – Primary qHTS Assay for Foot and Mouth Disease Virus Antivirals against NCGC Sytravon and CBC Compound Libraries: Firefly Luciferase Signal; 120,000 tested, 0.23% active; AID 1745856, 2022; HEK cells with a luciferase reporter of 2A StopGo recoding; Potency, µM (doses to about 57.5 µM), without a hit: at the highest dose signal change, negative = less light; active = well fitted falling curve with a large enough effect; inconclusive = small, poorly fitted or top-dose-only effect; inactive = no such curve, though single readings can be large or run the other way; note: nearly all actives have a fitted effect of over 60% in size; overnight with compound
Active calls of the source: *; ? = inconclusive; [ ] = remark or other dose. % is set by controls: 0 for no effect and ±100 for the full control effect; potency is the fitted concentration of half-maximal effect.

SMILES	StopGo RLuc	StopGo FLuc
CC(C)N(CC(=O)NC(=O)NCc1ccccc1)Cc1ccccn1	-2%[1.06 µM]	13%
CCOc1ccc(CN(C)C(=O)c2nn(Cc3ccccc3)c(=O)c3ccccc23)cc1OC	18%	-6%
COc1ccc2c(c1)CCc1c(C(=O)Nc3ccc(OC)cc3OC)noc1-2	14%	1%
COc1c(CNC(C)c2nnc3n2CCCCC3)c(C)nn1C (stereo not given)	-12%	-8%
Cc1cccc(-c2nc3c4ccccc4n(Cc4cccc(Cl)c4)c(=O)n3n2)c1	12%	12%
O=S(=O)(Nc1ccc(Br)cc1F)c1ccccc1	121%[activator]	-9%
Cn1nnnc1SCCCNCc1cc(Br)ccc1OCc1ccccc1F	-6%	-2%
Cc1ccc(S(=O)(=O)c2cn(CC(=O)Nc3ccc(Cl)cc3)c3ccc(F)cc3c2=O)cc1C	-6%	10%
Fc1ccccc1-c1ccc(CNc2ncn[nH]2)o1	2%	0%
N#C/C(=C\c1ccc(Cl)cc1Cl)c1nc(-c2cccc(Cl)c2)cs1	-12%	-13%
O=C(CSc1nc2c([nH]c3ccccc32)c(=O)n1-c1cccc(Cl)c1)NCc1ccccc1	0%	-2%
O=C(CCCCn1c(=O)c2ccccc2n(Cc2ccc(Cl)cc2)c1=O)NCc1ccccc1Cl	-7%	-9%
CC(Sc1ccc(Cl)cc1)C(=O)O (stereo not given)	3%	-8%
COc1ccc(-n2ncc3c2ncn2nc(-c4ccc(OC)c(OC)c4)nc32)cc1	13%	32%[activator]
N=CC1=C(O)CC(c2ccccc2)CC1=O (stereo not given)	-4%	-7%
Cc1cccc(C)c1NC(=O)CN1C(=O)c2cccc3cccc1c23	2%	0%
Cc1oc2cc(OCC(=O)NCC(=O)O)ccc2c(=O)c1-c1ccc(Cl)cc1	14%	-4%
CCOc1cccc(C(=O)N2CCCCC2CCN2CCCCC2)c1 (stereo not given)	-11%	-6%
CC1=C(C(=O)Nc2ccccc2)C(c2ccc(O)cc2)n2nc(-c3ccc(Cl)cc3)nc2N1 (stereo not given)	-13%	-15%
CCc1cnc2c(c1SCC(=O)Nc1ccc(C(=O)OC)cc1)c(=O)n(C)c(=O)n2C	-8%	-10%
O=C(COC(=O)CCc1c[nH]c2ccccc12)NCC(F)(F)F	2%	11%
Cc1ccc(Nc2ccc(C)cc2)cc1	-4%	0%
CCn1cc(C(=O)N2CCN(c3ccccc3OC)CC2)c(=O)c2cc(S(=O)(=O)N3CCC(C)CC3)ccc21	-1%	-17%
CCOC(=O)c1cccc(Nc2nc3ccccc3nc2NS(=O)(=O)c2ccc(C)cc2)c1	30%[activator]	15%
COc1ccc(NC(=O)C2CCN(S(=O)(=O)c3cc(-c4noc(C)n4)ccc3C)CC2)cc1	49%[activator]	79%[activator]
The list goes on.
SMILES	StopGo RLuc	StopGo FLuc
CCc1c(C)[nH]c2ccc(OC)cc2c1=O	3%	0%
COc1ccc(C)cc1-c1csc(N)c1C#N	29%	126%[activator]
CN(C)c1ccc(/C=N/Nc2ccccc2Cl)cc1	-7%	166%[activator]
CCOc1cc(/C=C(\C#N)C(=O)Nc2ccc(C)cc2)ccc1OCc1cc(=O)n2nc(CC)sc2n1	-16%	-21%
CCCCn1nnc(NC(=O)COc2ccc(Cl)cc2Cl)n1	-6%	-5%
Cc1ccc(CNC(=O)c2ccc(Cn3c(SCc4ccc(F)cc4)nc4cccnc43)cc2)o1	-10%	68%[activator]
COc1cccc(C(=O)Nc2ccc3oc(-c4ccccc4Cl)nc3c2)c1	?	14%
COc1ccccc1NCc1cccn1-c1nnc(N2CCCCCC2)s1	23%	-15%
COc1cccc(OC)c1C(=O)OCc1ccc(Br)cc1	143%[activator]	20%
COc1ccc2nc(NC(=O)c3cc(=O)c4ccc(C)cc4o3)sc2c1	6%	20%
CCOC(=O)c1sc(C)nc1C	3%	8%
CC(C)OCCCNCc1ccc(C(C)C)cc1	-6%	-12%
C=CCOC(=O)C(C#N)c1nc2ccccc2nc1N1CCCCC1 (stereo not given)	0%	-3%
Cc1ccc(NC(=O)c2cc(C)nc3ccccc23)nc1	0%	21%
Cc1cccc(OCC(=O)Nc2c(C(=O)N3CCN(c4ccccc4F)CC3)oc3ccccc23)c1	-7%	-14%
CCc1c(C(=O)NC2CCN(C(C)C)CC2)csc1C	-7%	0%
Cc1cccc(NC(=O)CN2CCCN(c3ncc(C(F)(F)F)cc3Cl)CC2)c1	-9%	-9%
CC1CCN(S(=O)(=O)c2ccc3nc(NCc4ccc(F)cc4)ccc3c2)CC1	99%[activator]	?
CCCn1nc(C(=O)NCc2ccc(OC)cc2)c2ccccc2c1=O	23%	4%
Cc1cc(C)n(C(=O)c2ccc(C)c(S(=O)(=O)N3CCCC3)c2)n1	2%	3%
CCOC(=O)C1CCN(C(=O)c2cc3cc(OC)ccc3[nH]2)CC1	0%	32%[activator]
CC(Nc1ncccc1-c1nc(-c2ccccc2)no1)c1ccccc1 (stereo not given)	5%	114%[activator]
CN(CC(=O)NCC(F)(F)F)C(c1ccccc1)c1ccccc1	4%	-2%
CC(Sc1ccccc1C(=O)NCC(=O)C(C)(C)C)C(=O)Nc1ccccc1 (stereo not given)	-1%	-7%
COc1ccc(NC(=O)C2CCN(S(C)(=O)=O)CC2)cc1	3%	-5%

Structures above with a furan ring, fused or not, in the order listed:
SMILES	StopGo RLuc	StopGo FLuc
Fc1ccccc1-c1ccc(CNc2ncn[nH]2)o1	2%	0%
Cc1ccc(CNC(=O)c2ccc(Cn3c(SCc4ccc(F)cc4)nc4cccnc43)cc2)o1	-10%	68%[activator]
Cc1cccc(OCC(=O)Nc2c(C(=O)N3CCN(c4ccccc4F)CC3)oc3ccccc23)c1	-7%	-14%

New compounds follow.
SMILES	StopGo RLuc	StopGo FLuc
CCCOC(=O)c1ccc(Oc2coc3cc(OCC)ccc3c2=O)cc1	-3%	21%
CNS(=O)(=O)Cc1ccccc1CNC(=O)c1cc(F)cc(F)c1	19%	15%
CCCCN(Cc1ccccc1)c1ccc(NS(=O)(=O)c2ccc(C(C)(C)C)cc2)cc1C(=O)O	104%[activator]	-2%
COc1ccc(C)cc1NC(=O)CN1C(=O)COc2ccc(S(=O)(=O)NC3CCCC3)cc21	43%[activator]	-17%
Cc1nc(NCc2ccccc2)sc1C(=O)NC1CCCC1	-11%	19%
N#Cc1nc(-c2ccc(Cl)cc2)oc1NCc1ccccc1Cl	17%	0%
CC(=O)c1cccc(NC(=O)C2CCN(S(=O)(=O)c3ccccc3)CC2)c1	10%	-15%
O=S(=O)(NCCc1ncc2ccccn12)c1ccc(F)cc1	0%	52%[activator]
COc1cccc(NC(=O)CSC2=C(C#N)C(c3ccc(C(C)C)cc3)C3=C(CCCC3=O)N2)c1 (stereo not given)	-4%	6%
Cc1ccc(-c2nn(CCC(=O)Nc3ccc(Cl)cc3)c(=O)c3ccccc23)cc1	15%	0%
COc1ccc(-c2cc(C(=O)N3CCOC(C)C3)c3ccccc3n2)cc1OC (stereo not given)	11%	32%[activator]
CCOc1ccc2c(=O)c(Oc3cccc(OC)c3)coc2c1	70%[activator]	123%[activator]
CCc1cc(-c2ccccc2)nc2ccccc12	-6%	20%
NC(=S)N/N=C/c1ccc(Cl)cc1	14%	0%
Cc1ccccc1Cn1ccc(NC(=O)C2=CC(c3ccc(F)cc3)=NS(=O)(=O)N2C)n1	-5%	-12%
COc1cc(C(=O)/C=C/c2cccc(F)c2)ccc1S(C)(=O)=O	34%[activator]	0%
CCCn1c(-c2ccc(OCC#N)c(OC)c2)nc2c1c(=O)[nH]c(=O)n2Cc1ccccc1	4%	8%
Cc1ccc(CNC(=O)c2ccc3c(O)c(S(=O)(=O)c4ccc(Cl)cc4)c(=O)[nH]c3c2)cc1	-18%	-17%
O=C(O)CCSC(C(=O)N1CCCCC1)c1ccccc1 (stereo not given)	1%	9%
COc1cc2nc(NC(=O)c3ccc(S(=O)(=O)N4CCCC4)cc3)sc2cc1OC	-4%	-3%
CNC(=O)c1ccc(CNC(=O)Cc2cn(C)c3ccccc23)cc1	16%	18%
COc1cc(NS(=O)(=O)c2ccc3oc(=O)c4ncn(C)c4c3c2)cc(OC)c1	9%	52%[activator]
CNC(=O)NC(=O)C(C)OC(=O)c1cc(C(F)(F)F)cc(C(F)(F)F)c1 (stereo not given)	12%	3%
CC1CC(=O)Nc2cc(S(=O)(=O)NCc3cccs3)ccc2S1 (stereo not given)	117%[activator]	55%[activator]
Cc1ccc(Cl)cc1NC(=O)c1ccccc1-c1ccccc1	12%	10%

Some of the entries so far, as labelled records.
N#Cc1nc(-c2ccc(Cl)cc2)oc1NCc1ccccc1Cl
  StopGo RLuc: 17%
  StopGo FLuc: 0%

Cc1nc(NCc2ccccc2)sc1C(=O)NC1CCCC1
  StopGo RLuc: -11%
  StopGo FLuc: 19%

Next section.
SMILES	StopGo RLuc	StopGo FLuc
COc1ccc(CCNC(=O)C(C)n2nc(C)c3c(C)n(-c4ccc(C)cc4)nc3c2=O)c(OC)c1 (stereo not given)	?	?
O=C(NCc1ccccc1OC(F)F)c1ccc(-n2cnnn2)cc1	3%	33%[activator]
CCCCn1c(SCc2ccccc2Cl)nc2c1c(=O)[nH]c(=O)n2C	20%	21%
O=C(Nc1cccc(Cl)c1)c1nn(-c2ccccc2)c(=O)c2ccccc12	-3%	-8%
O=C(O)C(c1c[nH]c2ccccc12)N1CCN(c2ccc(F)cc2)CC1 (stereo not given)	-14%	-12%
CC(C)(C)C(=O)Nc1cccc(NC(=O)C2CCN(c3nc4ccccc4o3)CC2)c1	?	?
COc1ccc(NS(=O)(=O)c2ccc3[nH]c(=O)ccc3c2)cc1OC	33%[activator]	2%
Cc1cccc(C)c1NC(=O)CNC(=O)CSc1nc(Cc2ccccc2)c(C)[nH]1	-4%	-6%
COc1ccc(/C=C(\C#N)c2nc3ccccc3[nH]2)c(OC)c1	83%[activator]	204%[activator]
COc1cc(S(=O)(=O)NC2CC(C)(C)NC(C)(C)C2)c(C)cc1C	222%[activator]	9%
COc1ccc(CCC(=O)NC2CC(=O)N(c3ccc(C)cc3)C2)cc1 (stereo not given)	-5%	-24%
O=C(C1=Cc2cc(Cl)ccc2OC1)N1CCN(S(=O)(=O)c2ccc(F)cc2)CC1	-17%	-18%
Cc1cccc(NC(=O)c2sc3nc(-c4cc5ccc(O)cc5oc4=O)[nH]c(=O)c3c2C)c1	-10%	14%
C=CCNC(=O)NC(=O)CN(Cc1ccccc1)CC(C)C(=O)OC (stereo not given)	3%	-7%
CN(C)CCCCC#N	19%	22%
CCc1nn(CCCC(=O)NCc2ccc(C)cc2)c(=O)c2cc3occc3n12	18%	22%
CCCNC(=O)C12CC3CC(C1)CC(c1ccc(C)cc1)(C3)C2	?	?
O=C(Cn1cccc1-c1nc(-c2ccc(Cl)cc2)no1)N1CCc2ccccc21	1%	22%
CCOC(=O)c1ccccc1NC(=O)N1CCC(CN2CCCCC2)CC1	6%	-13%
CCN(C(=O)Cn1nc(Cc2ccncc2)c2ccccc2c1=O)c1ccc(OC)cc1	0%	-18%
CCc1ccc(Oc2ccc(C#N)c(C#N)c2)cc1	6%	73%[activator]
COc1cc(/C=C(\C#N)C(=O)C(C)(C)C)ccc1OCc1ccc(Cl)cc1Cl	3%	42%[activator]
CCCC(=O)Nc1ccccc1OCc1cc(=O)n2cc(C)ccc2n1	80%[activator]	-17%
CSC1=N/C(=C\c2ccc3ccccc3c2)C(=O)S1	8%	-1%
CCOC(=O)c1c(C)[nH]c(CCC(=O)Nc2cc(C)ccc2OC)c1C	-11%	4%

Some of these compounds in order of heavy-atom count, rising:
SMILES	StopGo RLuc	StopGo FLuc
CCOC(=O)c1c(C)[nH]c(CCC(=O)Nc2cc(C)ccc2OC)c1C	-11%	4%
CCc1nn(CCCC(=O)NCc2ccc(C)cc2)c(=O)c2cc3occc3n12	18%	22%
Cc1cccc(C)c1NC(=O)CNC(=O)CSc1nc(Cc2ccccc2)c(C)[nH]1	-4%	-6%

Next compounds.
SMILES	StopGo RLuc	StopGo FLuc
CCCc1noc(CSc2nnnn2-c2cc(C)ccc2OC)n1	33%[activator]	-11%
COc1cccc(-n2cnc3c2NC(=O)CC3c2ccccc2)c1 (stereo not given)	9%	157%[activator]
COc1ccc(OC)c(NC(=O)c2cnc(N3CCCC3)nc2C)c1	17%	4%
CCn1c(-n2nc(C)c(C)c2C)nc2c1c(=O)n(Cc1c(F)cccc1Cl)c(=O)n2C	-6%	1%
CC(=O)/C(=C1\NC(C)(C)Cc2cc(C)c(C)cc21)c1ccccc1	1%	0%
Cc1c(OS(C)(=O)=O)ccc2c1O/C(=C\c1ccc3c(c1)OCO3)C2=O	33%[activator]	4%
CCOc1ccc(CNC(=O)c2cnc(SC)nc2CC)cc1	6%	0%
COCC(=O)N(C)[C@H]1C[C@H]2c3[nH]c4c(-c5ccc6c(c5)OCO6)cccc4c3CCN2C(=O)[C@H]1[C@H](C)O	2%	15%
O=C(c1ccco1)N(Cc1cccnc1)Cc1cc2ccccc2[nH]c1=O	-10%	2%
Cc1cnc(C(=O)Oc2cccc(Cl)c2)cn1	-1%	-3%
Clc1ccc2nc(-c3ccc(Br)cc3)cn2c1	-2%	0%
Cc1ccc(F)c(NC(=O)CCN=C2NS(=O)(=O)c3ccccc32)c1	11%	-4%
CCC(CC)NC(=O)COc1ncnc2c(Cl)cc(Cl)cc12	-7%	-7%
CC(C)OCCCn1c(=O)c2ccccc2n2c(-c3ccc(F)cc3)nnc12	5%	8%
CSc1ncc(Cl)c(C(=O)Nc2nc3ccc(F)cc3s2)n1	-17%	-21%
Cc1ccc(NC(=O)c2sc(-n3nc(C)c(CCC(C)C)c3C)nc2C)cc1C	2%	-1%
